Rango complex inh = prevents formation of the Rango-importin beta complex; Q14974; Rango CFP/YFP FRET sensor + importin beta, 45 min; Potency, µM (titrated, usually from 92.2 µM), inactives show at the top dose inhibition of complex formation; 340,000 tested, 0.031% active; AID 540263; active = rising FRET ratio curve, often small or poorly fitted; inconclusive = mostly compound fluorescence or quenching in the first reads; inactive = flat curves in all reads;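 further: potency means the concentration at half of the fitted maximal effect; 0% = DMSO wells and 100% = buffer wells lacking importin beta; nearly all actives have a fitted effect of over 15% in size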
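FRET biosensor Rango (snurportin 1 IBB between N-terminal EYFP and C-terminal Cerulean), 50 nM in PBS/1 mM DTT/0.02% Tween-20/0.1% BSA, preincubated 5 min RT with compound; 0.125 microM importin beta added, 45 min RT, CFP/YFP FRET ratio read.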
GLA inh pH 4.5 = alpha-galactosidase A (human) inhibition, pH 4.5; AID 1467; activity change, negative = inhibition, % at 105 µM; P06280; 230,000 tested, under 10 active; purified enzyme, 4-MU-alpha-Gal fluorescence, pH 4.5; inconclusive = small, poorly fitted or top-dose-only inhibition, or a rising curve; inactive = flat fitted curve, though single readings scatter; no compound was filed as active;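 further: 0% = full activity with enzyme and -100% = basal without enzyme; dose as in the result columns while the protocol names 77 µM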
Target sequence (P06280 whole entry, looked up): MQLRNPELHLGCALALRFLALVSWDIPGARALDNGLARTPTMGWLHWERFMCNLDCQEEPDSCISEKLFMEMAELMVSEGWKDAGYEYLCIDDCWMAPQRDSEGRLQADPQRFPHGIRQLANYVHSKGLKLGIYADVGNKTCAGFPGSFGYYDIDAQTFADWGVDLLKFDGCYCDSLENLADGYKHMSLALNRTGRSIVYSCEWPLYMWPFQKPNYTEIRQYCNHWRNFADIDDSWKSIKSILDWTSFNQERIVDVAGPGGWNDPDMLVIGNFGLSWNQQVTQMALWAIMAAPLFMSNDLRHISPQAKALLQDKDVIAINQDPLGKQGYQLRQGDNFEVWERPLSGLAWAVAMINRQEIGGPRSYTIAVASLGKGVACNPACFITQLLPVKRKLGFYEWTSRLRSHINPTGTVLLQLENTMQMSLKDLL
Rango dissoc inh = inhibitors of RanGTP-induced Rango-importin beta complex dissociation; O95149+P62826; Biochemical FRET Rango-importin beta, RanGTP-induced dissociation; Potency, µM (series often up to 46.1 µM), for inactives: at the highest dose activity change, negative = inhibition; 340,000 tested, 0.071% active; AID 540253; active means falling FRET ratio curve, often poorly fitted, with flat reads before Ran was added; inconclusive means other falling curves, or compound fluorescence or quenching; inactive means flat or rising ratio curve;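 further: potency means the concentration at half of the fitted maximal effect; % of control where 0% means no effect; nearly all actives have a fitted effect of over 45% in size; -100% = wells without RanGTP and RCC1; the record marks most hits as doubtful in a second field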
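Rango FRET biosensor (snurportin-1 IBB flanked by N-terminal EYFP and C-terminal CFP10) at 0.1 uM, with 0.25 uM importin beta in PBS, 1mM DTT, 0.02% Tween-20, 0.1% BSA. 0.6 uM Ran, 2mM GTP and 0.2 uM RCC1 were then added for 45 min at room temperature. Inhibition read as loss of FRET rise.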
miR-21 reporter = raises the signal of a miR-21 reporter; HeLa miR-21 FLuc reporter, luciferase, 48 h; Potency, µM (doses to about 38.3 µM), for the others: at the top dose reporter change, positive = more light; 340,000 tested, under 10 active; AID 2288; active = well fitted rising curve with a large enough effect; inconclusive = small, poorly fitted or top-dose-only effect; inactive = no such curve, though single readings can be large or run the other way;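 further: % of control where 0% means no effect; miR-21 action dims this reporter so a rising signal means less miR-21 action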
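HeLa cells endogenously expressing miR-21, stably carrying CMV-driven firefly luciferase with a downstream miR-21 binding site, 2000 cells/well. Titrations up to approximately 40 uM, 48 hours; luciferase luminescence read.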
Active calls of the source: *; & = joins results of further samples. These rows are one share of the data (hit frequency here may not be typical).

What do the screens show for `CCOc1ccccc1C(=O)NCC(=O)NCCSc1ccc(Br)cc1`?
Rango complex inh: 1.8%; Rango dissoc inh: 8.1%

How did Cc1c(C(=O)N(Cc2ccccc2Cl)C2CCS(=O)(=O)C2)oc2ccccc12 (stereo not drawn) do in these assays?
Rango complex inh: -1.9%; Rango dissoc inh: -10.7%; miR-21 reporter: 0.7%

How did COc1ccc(-c2cc(C(=O)N3CCC3)c3ccccc3n2)cc1OC do in these assays?
Rango complex inh: 2.4%; Rango dissoc inh: 28.7%

Results for COc1cccc(C(=O)c2c[nH]c(C(=O)NCc3cccs3)c2)c1 ?
Rango complex inh: inconclusive; GLA inh pH 4.5: 2.9; Rango dissoc inh: -12.0%; miR-21 reporter: -12.4%

How did O=C(Nc1nc2ccsc2c(=O)s1)c1ccco1 do in these assays?
Rango complex inh: inconclusive; GLA inh pH 4.5: -9.3; Rango dissoc inh: -23.8%; miR-21 reporter: -24.3%

Results for O=C(O)c1[nH]c2ccc(Cl)cc2c1CCN1C(=O)c2ccccc2C1=O ?
Rango complex inh: 0.3%; GLA inh pH 4.5: -1.8; Rango dissoc inh: 3.8%; miR-21 reporter: -6.9%

Results for CC1C2CC(C(CN(C)C)/C2=N/O)C1(C)C (stereo not drawn) ?
Rango complex inh: inconclusive; GLA inh pH 4.5: 15.4; Rango dissoc inh: 3.4%; miR-21 reporter: 0.0%

Results for Cc1nc2ccccn2c1CN(C)C(=O)C1CCC(=O)N(Cc2cccc(F)c2)C1 (stereo not drawn) ?
Rango complex inh: -2.7%; Rango dissoc inh: 13.4%; miR-21 reporter: -0.3%

How did Cn1c(Cc2ccc(Cl)cc2)nnc1SCC(=O)NC1CC1 do in these assays?
Rango complex inh: 3.1%; Rango dissoc inh: -1.1%; miR-21 reporter: -4.5%

Results for CCOC(=O)CSc1nc(-c2ccccc2)nc2ccccc12 ?
Rango complex inh: 0.4%; GLA inh pH 4.5: 0.3; Rango dissoc inh: -15.6%; miR-21 reporter: 1.9%

How did COc1cc(C)ccc1OCC(=O)Nc1ccc2c(c1)OCO2 do in these assays?
Rango complex inh: 1.8%; Rango dissoc inh: 1.3%

Results for CCOC(=O)C1=C(C)Nc2nc(C)nn2C1c1cc(OC)ccc1OC (stereo not drawn) ?
Rango complex inh: 8.4%; GLA inh pH 4.5: -7.8; Rango dissoc inh: -14.3%; miR-21 reporter: -0.6%

Results for CCn1c(SCC(=O)c2ccc3ccccc3c2)nnc1-c1cccs1 ?
Rango complex inh: -3.1%; GLA inh pH 4.5: 8.3; Rango dissoc inh: -1.6%; miR-21 reporter: -4.7%

Results for CC(NC(=O)OCc1ccccc1)c1ccccc1 (stereo not drawn) ?
Rango complex inh: 0.4%; Rango dissoc inh: -4.0%

Results for Cc1ccc(S(=O)(=O)Nc2nc(CN3CCOCC3)nc3sc(C)c(C)c23)cc1 ?
Rango complex inh: inconclusive; Rango dissoc inh: inconclusive

Results for NC(=O)c1ccc(NC(=O)CN2C(=O)NC3(CCCCCCC3)C2=O)cc1 ?
Rango complex inh: 2.06µM*; Rango dissoc inh: -12.7%

How did Cn1c(CNc2nc(-c3ccccc3)cs2)nnc1SCC(=O)OC1CCCCC1 do in these assays?
Rango complex inh: -0.1%; GLA inh pH 4.5: -1.2; Rango dissoc inh: 7.8%; miR-21 reporter: -1.8%

How did Cc1ccc(Cn2c(Cc3ccccc3)nc3ccccc32)cc1 do in these assays?
Rango complex inh: -0.7%; GLA inh pH 4.5: -5.8; Rango dissoc inh: 0.8%; miR-21 reporter: 9.6%&-0.7%

What do the screens show for `CCCCn1nnnc1NCc1cc(Cl)c(OC)c(OC)c1`?
Rango complex inh: 2.4%; GLA inh pH 4.5: 8.3; Rango dissoc inh: 14.3%; miR-21 reporter: 0.1%

What do the screens show for `CN(C(=O)COC(=O)CCC(=O)c1ccc(F)cc1)C1CCCCC1`?
Rango complex inh: 0.9%; Rango dissoc inh: -16.6%

Overlap with the part before: three compounds, followed by the next part.
How did Cc1ccc(Cn2c(Cc3ccccc3)nc3ccccc32)cc1 do in these assays?
Rango complex inh: -0.7%; GLA inh pH 4.5: -5.8; Rango dissoc inh: 0.8%; miR-21 reporter: 9.6%&-0.7%

What do the screens show for `CCCCn1nnnc1NCc1cc(Cl)c(OC)c(OC)c1`?
Rango complex inh: 2.4%; GLA inh pH 4.5: 8.3; Rango dissoc inh: 14.3%; miR-21 reporter: 0.1%

What do the screens show for `CN(C(=O)COC(=O)CCC(=O)c1ccc(F)cc1)C1CCCCC1`?
Rango complex inh: 0.9%; Rango dissoc inh: -16.6%

What do the screens show for `O=C(Nc1ccccc1F)C1COc2ccccc2O1` (stereo not drawn)?
Rango complex inh: -0.1%; Rango dissoc inh: 40.7%; miR-21 reporter: -51.9%

How did Cc1cc(NC(=O)CSc2nnc(-c3ccc(Cl)s3)o2)no1 do in these assays?
Rango complex inh: -2.3%; GLA inh pH 4.5: 0.4; Rango dissoc inh: -9.3%; miR-21 reporter: -22.3%

What do the screens show for `Cc1cc(C(=O)OCC(=O)Nc2cccc(S(=O)(=O)N3CCOCC3)c2)c(C)o1`?
Rango complex inh: -3.7%; GLA inh pH 4.5: -3.9; Rango dissoc inh: 0.9%; miR-21 reporter: -0.6%

Results for COc1ccc(CC(NC(C)=O)C(=O)NC2CCN(C(=O)C3CCCCC3)CC2)c(OC)c1 (stereo not drawn) ?
Rango complex inh: 0.1%; Rango dissoc inh: -8.5%; miR-21 reporter: -1.5%

Results for Cn1c(=O)c2c(nc(Oc3ccccc3N)n2C)n(C)c1=O ?
Rango complex inh: -1.6%; Rango dissoc inh: 9.8%; miR-21 reporter: 0.0%

How did C#CCOCCOCCOCCNc1nc(N2CCN(C(=O)CCCCCCCCCCNC(=O)Cn3cc(C[C@@H](C)O)nn3)CC2)nc(N2CCN(C(=O)CCCCCCCCCCNC(=O)[C@@H](CCC(=O)O)n3cc(CCCCCN)nn3)CC2)n1 do in these assays?
Rango complex inh: 1.8%; Rango dissoc inh: 7.6%

What do the screens show for `Cc1ccc(C(=O)Nc2ccc3c(c2)OCO3)cc1S(=O)(=O)N1CCCC1`?
Rango complex inh: 2.6%; GLA inh pH 4.5: -7.6; Rango dissoc inh: -13.6%; miR-21 reporter: -11.4%

Results for O=C(CSc1nc2ccccc2s1)N1CCN(C(=O)c2ccco2)CC1 ?
Rango complex inh: -1.1%; GLA inh pH 4.5: 11.5; Rango dissoc inh: 5.0%; miR-21 reporter: -2.9%

Results for COc1ccc(C(=O)N2CCN(S(=O)(=O)c3ccc(Cl)cc3)CC2)cc1S(=O)(=O)N1CCOCC1 ?
Rango complex inh: 0.2%; Rango dissoc inh: 1.2%

How did C#CCN1C(C)=C(C(=O)OC)C(c2cccc([N+](=O)[O-])c2)C(C(=O)OCC)=C1C (stereo not drawn) do in these assays?
Rango complex inh: -1.4%; GLA inh pH 4.5: -10.4; Rango dissoc inh: -15.5%

Results for O=C(Nc1ccc(Br)cc1)c1cnc[nH]1 ?
Rango complex inh: -0.8%; Rango dissoc inh: 7.7%; miR-21 reporter: -38.6%

How did CC(=O)c1sc(NC(=O)c2ccc3c(c2)OCO3)nc1C do in these assays?
Rango complex inh: inconclusive; Rango dissoc inh: -11.9%; miR-21 reporter: -47.7%

What do the screens show for `CCOc1ccc2nc(N3CCC(C(=O)NC4CCCCC4)CC3)sc2c1`?
Rango complex inh: 11.5%; Rango dissoc inh: -1.3%; miR-21 reporter: -7.9%

What do the screens show for `COc1cc(C(=O)NCc2nnc(SCC(=O)N3CCCCCC3)o2)cc(OC)c1OC`?
Rango complex inh: 3.8%; Rango dissoc inh: 0.5%; miR-21 reporter: 2.2%

Results for O=C(COC(=O)CCOc1ccccc1)NCCC1=CCCCC1 ?
Rango complex inh: 1.4%; GLA inh pH 4.5: 3.1; Rango dissoc inh: -0.2%; miR-21 reporter: 4.3%

What do the screens show for `Cn1c(=O)[nH]c(=O)c2c1nc1n2CCCS1`?
Rango complex inh: 1.6%; GLA inh pH 4.5: -4.6; Rango dissoc inh: 36.1%; miR-21 reporter: -0.6%

What do the screens show for `COCCn1c(=O)c2c(nc3n2CC(C)CN3Cc2ccccc2)n(C)c1=O` (stereo not drawn)?
Rango complex inh: 3.6%; Rango dissoc inh: inconclusive; miR-21 reporter: -2.8%

Results for COc1ccc(Cl)cc1NC(=O)CN(C)C(=O)c1ccc2n[nH]nc2c1 ?
Rango complex inh: -1.0%; Rango dissoc inh: 12.1%

Results for CC1CCN(c2c(NCC3CCC(C(=O)NCc4ccc(F)cc4)CC3)c(=O)c2=O)CC1 (stereo not drawn) ?
Rango complex inh: 1.1%; GLA inh pH 4.5: -4.3; Rango dissoc inh: -0.4%; miR-21 reporter: 0.5%

What do the screens show for `Cc1onc(-c2ccccc2Cl)c1C(=O)Nc1sc2c(c1C(N)=O)CCC(C)C2` (stereo not drawn)?
Rango complex inh: 1.1%; GLA inh pH 4.5: -4.5; Rango dissoc inh: -20.1%; miR-21 reporter: -10.9%

How did O=C(O)[C@H]1CCCC[C@H]1C(=O)NCCNC(=O)[C@@H]1CCCC[C@@H]1C(=O)O do in these assays?
Rango complex inh: 4.2%; GLA inh pH 4.5: 8.5; Rango dissoc inh: -7.7%; miR-21 reporter: 1.1%

How did COc1ccccc1-c1noc(CCCC(=O)NC2CCCCC2)n1 do in these assays?
Rango complex inh: -1.7%; Rango dissoc inh: 13.5%; miR-21 reporter: -1.4%

How did CNS(=O)(=O)c1cccc2cccnc12 do in these assays?
Rango complex inh: -0.1%; GLA inh pH 4.5: 2.0; Rango dissoc inh: 0.1%; miR-21 reporter: 0.4%

What do the screens show for `CCOC(=O)C(C(=O)OCC)N(C#N)c1nc(SC)nc(N(C)C)n1`?
Rango complex inh: 0.4%; GLA inh pH 4.5: 0.7; Rango dissoc inh: 11.9%; miR-21 reporter: -5.0%

Results for CCC(=O)c1ccc(OC(C)C(=O)NC2(C#N)CCCCC2)cc1 (stereo not drawn) ?
Rango complex inh: -3.5%; GLA inh pH 4.5: -20.3; Rango dissoc inh: -10.7%; miR-21 reporter: -3.4%

Results for CSc1nc2nc(C(F)(F)F)cc(-c3ccccc3)n2n1 ?
Rango complex inh: 1.0%; GLA inh pH 4.5: 11.9; Rango dissoc inh: -1.8%; miR-21 reporter: -7.2%

Results for Cc1nnc(SCC(=O)NCCC2=CCCCC2)[nH]c1=O ?
Rango complex inh: 0.1%; Rango dissoc inh: -5.8%

How did CCC(CC)C(=O)Nc1cccc(C(=O)Nc2ccc(S(N)(=O)=O)cc2)c1 do in these assays?
Rango complex inh: -1.8%; GLA inh pH 4.5: -2.0; Rango dissoc inh: 1.2%; miR-21 reporter: -2.0%

Results for O=C(Nc1cccc(S(=O)(=O)Nc2ccc(Cl)cc2)c1)c1cc2c(s1)CCCC2 ?
Rango complex inh: -1.0%; GLA inh pH 4.5: -7.8; Rango dissoc inh: 1.1%; miR-21 reporter: 28.0%

How did COc1ccc(/C=N/N2CCN(Cc3ccc(C)cc3)CC2)cc1Br do in these assays?
Rango complex inh: -0.4%; Rango dissoc inh: 1.1%; miR-21 reporter: -0.2%

Results for COc1cccc(C2CC(c3ccccc3)=NN2S(=O)(=O)c2ccc(C)cc2)c1OC (stereo not drawn) ?
Rango complex inh: inconclusive; GLA inh pH 4.5: -6.4; Rango dissoc inh: -14.6%; miR-21 reporter: -10.3%

Results for CC1(C)CC(=O)C(N=Nc2cccc([N+](=O)[O-])c2)=C(O)C1 ?
Rango complex inh: -4.5%; GLA inh pH 4.5: -5.5; Rango dissoc inh: inconclusive; miR-21 reporter: -49.0%

What do the screens show for `COC(=O)c1nn(-c2ccc(OC)cc2)c(=O)cc1O`?
Rango complex inh: inconclusive; GLA inh pH 4.5: -0.1; Rango dissoc inh: 0.0%; miR-21 reporter: 0.8%

What do the screens show for `O=c1cc(O)nc(SCc2ccccc2)n1-c1ccc(F)cc1`?
Rango complex inh: 0.2%; GLA inh pH 4.5: -14.3; Rango dissoc inh: -7.4%; miR-21 reporter: -3.9%

Compound activity from PubChem.
